High-throughput results: PubChem, National Center for Advancing Translational Sciences (NCATS)
GLA inh pH 4.5 – blocks human alpha-galactosidase A at pH 4.5 | P06280 | 230,000 tested, under 10 active | activity change, negative = inhibition, % at 105 µM | AID 1467 | purified enzyme, 4-MU-alpha-Gal fluorescence, pH 4.5; inconclusive = small, poorly fitted or top-dose-only inhibition, or a rising curve; inactive = flat fitted curve, though single readings scatter; no compound was filed as active;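 note: 0% = full activity with enzyme and -100% = basal without enzyme; dose as in the result columns while the protocol names 77 µM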
Target sequence (P06280 whole entry, looked up): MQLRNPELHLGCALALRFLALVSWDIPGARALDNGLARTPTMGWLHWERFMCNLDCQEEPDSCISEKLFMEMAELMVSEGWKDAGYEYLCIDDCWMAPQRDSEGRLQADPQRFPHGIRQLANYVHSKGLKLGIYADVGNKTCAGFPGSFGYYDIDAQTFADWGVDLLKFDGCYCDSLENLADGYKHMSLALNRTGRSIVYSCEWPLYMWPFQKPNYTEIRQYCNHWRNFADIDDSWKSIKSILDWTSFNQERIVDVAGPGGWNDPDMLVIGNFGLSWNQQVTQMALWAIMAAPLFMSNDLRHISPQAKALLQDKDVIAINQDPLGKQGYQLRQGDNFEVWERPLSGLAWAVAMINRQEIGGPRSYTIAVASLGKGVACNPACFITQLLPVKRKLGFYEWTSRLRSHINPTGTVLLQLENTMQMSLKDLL
* hit, by the source's call; ? = inconclusive; & = joins results of further samples.

GLA inh pH 4.5 | Structure
1.6 | CCCC(=O)O[C@]1(C(=O)CO)CCC2[C@@H]3CCC4=CC(=O)CC[C@]4(C)C3C(O)C[C@]21C (stereo not given in full)
2.2 | Cc1cccc(CNc2ncnc3ccc(-c4cccc(C#N)c4)cc23)c1
-0.7 | O=S(=O)(CCc1ccccc1)c1nc2ccccc2s1
-4.4 | Cc1nc(NC2CCCCC2)c2nc(-c3ccccc3)n(CCCN3CCOCC3)c2n1
-4.6 | CNC(=O)[C@H]1O[C@H](n2cnc3c(NCc4cccc(I)c4)ncnc32)[C@@H](O)[C@@H]1O
2.2 | CCCCCCCc1cc2c(cn1)=C(OC)C(C)(OC(C)=O)C(=O)C=2Cl (stereo not given)
-1.7 | CC(C)OC(=O)[C@@H]1CC[C@H](C)[C@@H](CCCC=O)O1
-3.3 | CC(=O)NCCc1ccc(O)c(O)c1
-10.0 | COC1OC2COC(c3ccccc3)OC2C(O)C1O (stereo not given)
-11.2 | CCCn1c(C)nc2c(Nc3ccccc3)nc(C)nc21
0.7 | CC(=O)OCC1C2CC[C@H]3C(OCc4ccc(F)cc4C(F)(F)F)OC[C@]4(C)[C@H]3C2=C(CN4C(=O)OC(C)(C)C)[C@H](C)C1COC(C)=O (stereo not given in full)
1.1 | CC[C@@H]1OC(=O)[C@H](C)[C@H](O[C@@H]2C[C@](C)(OC)[C@H](O)[C@H](C)O2)[C@H](C)[C@H](O[C@@H]2O[C@@H](C)C[C@@H](N(C)C)[C@@H]2O)[C@](C)(O)C[C@H](C)[C@@H]2N[C@H](COCCOC)O[C@H]([C@@H]2C)[C@]1(C)O
16.1 | Cc1cnc(CNc2ncncc2-c2ccccc2C(F)(F)F)cn1
0.4 | C[C@@H]1c2ccccc2CN1CC1=NCCN1
-10.1 | COC(=O)c1ccccc1S(=O)(=O)N1CCc2nc(COc3ccccc3)c3c(c2C1)CO[C@@H](C)C3
-14.3 | CN(C)Cc1ccccc1-c1cncnc1Nc1ccc(F)cc1
7.1 | Cc1ccc(C)c(-c2ccc(C(=O)O)o2)c1
-5.9 | C=C1CCC2[C@](C)(CO)[C@H](O)CC[C@@]2(C)[C@@H]1C/C=C1/C(=O)OC[C@H]1O (stereo not given in full)
-9.5&2.2&-12.9 | O=[N+]([O-])c1cccc2c(Br)[nH]nc12
-17.9 | CCCCCC(=O)/C=C/C=C\CCCCCCCC(=O)O
-0.3 | COC(=O)C(C(=O)OC)[C@@H]1O[C@@]23COC=C[C@]2(C)[C@H]3c2ccccc21
-1.7 | C#CCOC(=O)NC(/C=C/CCCC)c1ccccc1 (stereo not given)
-7.5 | COC(=O)[C@@]1(Cc2ccc(F)cc2)[C@H]2c3cc(C(=O)N4CCCC4)n(Cc4ccc(C)o4)c3C[C@H]2CN1C(=O)c1ccccc1
-13.9 | O=C(c1ccc(C(F)(F)F)cc1)N1CCC(=O)N([C@H](COCc2ccc(C(F)(F)F)cc2)Cc2ccccc2)CC1
3.5 | C[C@H](CCC(=O)O)[C@H]1CC[C@H]2[C@H]3C(C[C@H](O)[C@]12C)[C@@]1(C)CC[C@@H](O)C[C@H]1C[C@H]3O (stereo not given in full)

The listing continues.
GLA inh pH 4.5 | Structure
-2.6 | CC1CCC(C(C)[C@H]2CCC3C4CC(=O)C5C[C@@H](O)CC[C@]5(C)C4CC[C@@]32C)=NC1 (stereo not given in full)
-6.0 | COC(=O)CCCCCN1C(=O)NC(CC2CC2)C(C(=O)OCc2ccccc2)=C1C (stereo not given)
5.2 | COC(=O)C1=C(C(=O)OC)[C@@H]2N(Cc3ccccc3)c3ccccc3[C@@]23C[C@@H](C(=O)OC)N(S(=O)(=O)c2ccc4c(c2)OCCN4C)C3=N1
-5.8 | C[C@@H](C(=O)Nc1ccc2ccccc2c1)[C@@H]1C[C@@]1(C)[C@@H](NS(=O)(=O)c1ccc(-c2ccccc2)cc1)c1ccccc1
-0.4 | COC(=O)C1=C(C(=O)OC)[C@@H]2N(C)c3ccccc3[C@@]23C[C@@H](C(=O)OC)N(S(=O)(=O)c2cccs2)C3=N1
-0.2 | CS(=O)(=O)c1ccc(C(O)C(CO)NC(=O)C(Cl)Cl)cc1 (stereo not given)
-12.2 | CC(=O)O[C@H]1C[C@H]2CC[C@@H]3[C@@H](CC[C@]4(C)[C@H](OC(C)=O)[C@H]([N+]5(C)CCCCC5)C[C@@H]34)[C@]2(C)C[C@H]1[N+]1(C)CCCCC1
1.2 | COC(=O)[C@@]1(Cc2ccc(F)cc2)[C@H]2c3cc(C(=O)N4CCCC4)n(CCF)c3C[C@H]2CN1C(=O)c1ccccc1
-11.9 | CCCCCCCCCCCCCCC(C(=O)OC)C(O)(CC(=O)OC)C(=O)OC (stereo not given)
-2.1 | Nc1cc(Cl)c(NC2=NCCN2)c(Cl)c1
1.3 | C=C1CCC2C(CC2(C)C)C(=C)CC/C1=N/O (stereo not given)
0.4 | Clc1ccccc1-c1nc(N2CCNCC2)c2ccccc2n1
-5.4 | COc1ccc(CNc2ccnc(-c3ccccc3C(F)(F)F)n2)c(OC)c1
6.1 | CC(=O)NCc1c(I)c(NC(C)=O)c(I)c(C(=O)O)c1I
1.0 | CC(=O)OCC(=O)[C@@]12OC(C)(C)OC1CC1C3CC(F)C4=CC(=O)C=C[C@@]4(C)[C@@]3(F)C(O)C[C@]12C (stereo not given in full)
1.1 | COc1ccc(-c2nc(-c3ccccc3)c(NCc3ccccc3)o2)cc1
-4.2 | CCO[C@H]1O[C@@H]([C@H](COCc2ccccc2)OCc2ccccc2)[C@@H](OCc2ccccc2)[C@H]1O
-6.5 | Cc1ccc(CNC(=O)[C@H]2C[C@@H]2[C@H](NP(=O)(c2ccccc2)c2ccccc2)c2ccccc2)c(F)c1F
8.3 | COc1cc(O)c2c(c1)C(=O)c1cc(C)cc(O)c1C2=O
-11.9 | CCCN(C/C=C\I)[C@@H]1CCc2cccc(O)c2C1
2.3 | N[C@@H](Cn1ccc(=O)n(Cc2ccccc2C(=O)O)c1=O)C(=O)O
-16.8 | COC(=O)[C@@]1(Cc2ccccc2)[C@H]2c3cc(C(=O)N4CCCC4)n(Cc4ccc(C)o4)c3C[C@H]2CN1C(=O)c1ccccc1
0.7 | CCCCC[C@H](O)/C=C/[C@H]1C(=O)C=C[C@@H]1C/C=C\CCCC(=O)O
-4.9 | O=c1c(-c2ccc(O)cc2)coc2c(C3OC(CO)C(O)C(O)C3O)c(O)ccc12 (stereo not given)
-8.4&3.3 | CCCCN1CCCC[C@H]1C(=O)Nc1c(C)cccc1C

Following part
GLA inh pH 4.5 | Structure
-4.1 | C[C@H]1CC[C@@H]2N(C1)C[C@H]1[C@@H]3C[C@H]4[C@@H](C/C(=N\O)[C@H]5C[C@@H](O)CC[C@@]54C)[C@@H]3CC[C@H]1[C@]2(C)O
-4.5 | O=c1cc(-c2cccc(F)c2)[nH]c2cc(Cl)ccc12
-7.5 | Cc1cc(=O)c2c(O)c3c(O)cc(O)c4c5c(O)cc(O)c6c(O)c7c(=O)cc(C)c8c1c2c(c34)c(c65)c78
-12.4 | CCN1CCCC1Cn1c(-c2ccccc2)nc2c(NC3CCCCC3)nc(C)nc21 (stereo not given)
5.0 | CC(C)C1CCC(C(=O)NC(Cc2ccccc2)C(=O)O)CC1 (stereo not given)
? | COc1cc2nc(N3CCN(C(=O)[C@H]4CCCO4)CC3)nc(N)c2cc1OC
-6.6 | CC(C)(C)c1onc(OCP(=O)(O)O)c1CC(N)C(=O)O (stereo not given)
-4.3 | NCCC[C@@H](CC(=O)N[C@@H]1CCCC[C@H]1C(=O)N[C@H](CC(=O)N[C@@H](CCC(=O)O)CC(=O)O)Cc1c[nH]c2ccccc12)NC(=O)C[C@H](Cc1c[nH]c2ccccc12)NC(=O)[C@@H]1CNCC[C@H]1N
-6.0 | CCOC(=O)O[C@@H](C)OC(=O)[C@@H]1N2C(=O)[C@@H](NC(=O)[C@@H](N)c3ccccc3)[C@H]2SC1(C)C
0.6 | CC1=C2[C@@H](O)[C@H]([C@@H](C)C(=O)NCCC(C)C)CC[C@@]2(C)C=CC1=O
-1.8 | CC(N)=O
-2.7 | COC(=O)[C@@]1(Cc2ccc(OC)cc2)[C@H]2c3cc(C(=O)N4CCCC4)n(Cc4cc(F)c(F)c(F)c4)c3C[C@H]2CN1C(=O)c1ccccc1
-3.7 | CCCC[C@@H]1C[C@H]1C(NC(=O)c1ccccc1)c1ccc(C(F)(F)F)cc1 (stereo not given in full)
1.6 | CS(=O)(=O)c1ccc(CNC(=O)[C@@H]2C[C@H]2[C@@H](NP(=O)(c2ccccc2)c2ccccc2)c2ccccc2)cc1
-18.8 | CCOC(=O)[C@H](N)/C=C(\C)CP(=O)(O)O
6.3 | Cc1onc(-c2c(F)cccc2Cl)c1C(=O)N[C@H]1C(=O)N2[C@H]1SC(C)(C)[C@H]2C(=O)O
-8.7 | CCCCC[C@H](O)/C=C/[C@@H]1[C@@H](CC(=O)CCC(=O)O)[C@@H](O)C[C@H]1O
1.2 | C[C@@]12CC[C@@H]3c4ccc(O)cc4C[C@H](CCCCCCCCCS(=O)CCCC(F)(F)C(F)(F)F)[C@H]3[C@@H]1CC[C@@H]2O (stereo not given in full)
7.1 | CC1(C)CCC(NC(=O)[C@@H](N)CCC(=O)O)CC1
? | O=C(OCC1OC(OC(=O)c2cc(O)c(O)c(OC(=O)c3cc(O)c(O)c(O)c3)c2)[C@@H](OC(=O)c2cc(O)c(O)c(OC(=O)c3cc(O)c(O)c(O)c3)c2)C(OC(=O)c2cc(O)c(O)c(OC(=O)c3cc(O)c(O)c(O)c3)c2)C1OC(=O)c1cc(O)c(O)c(OC(=O)c2cc(O)c(O)c(O)c2)c1)c1cc(O)c(O)c(OC(=O)c2cc(O)c(O)c(O)c2)c1 (stereo not given in full)
-2.4 | CC(C)c1ccccc1S(=O)(=O)c1cc(N)c2ncccc2c1[N+](=O)[O-]
-4.4 | CCCCCCCCCCCCCCCC(=O)OCC(NC(=O)C(Cl)Cl)C(O)c1ccc([N+](=O)[O-])cc1 (stereo not given)
8.7 | COC(=O)[C@@H]1C[C@H]1[C@@H](NC(=O)c1cc(C)nn1C)c1ccccc1
-2.2 | CCCCC[C@H](O)/C=C/C=C\C=C\C=C\[C@@H](O)[C@@H](O)CCCC(=O)O
-1.0 | CC[C@H](C)N(C)C(=O)c1cc2ccccc2c(-c2ccccc2Cl)n1

Additional entries follow:
GLA inh pH 4.5 | Structure
2.9 | COC(=O)Oc1ccccc1C(=O)O
-14.3 | CCN(CC)Cc1ccc(Nc2ccnc3cc(Cl)ccc23)cc1O
0.4 | CC(N)(Cc1ccc(O)cc1)C(=O)O (stereo not given)
-7.9 | COC(=O)[C@@]1(C)C=C[C@@H](Cc2ccccc2)N1C(C)=O
4.2 | COc1ccc(C2CC(=O)c3c(O)cc(O[C@H]4OC(COC5OC(C)C(O)C(O)[C@@H]5O)C(O)C(O)C4O)cc3O2)cc1O (stereo not given in full)
-10.3 | CCOC(=O)CNC(=O)O[C@@H]1C(=O)c2cc(Br)ccc2O[C@H]1c1ccc2c(c1)OCO2
3.0 | CCOC(=O)O[C@]1(C(=O)COC(=O)CC)CC[C@@H]2[C@@H]3CCC4=CC(=O)C=C[C@@]4(C)[C@H]3[C@H](O)C[C@]21C
3.6 | C=CCN1C(=CCO)[C@H]2C[C@H]3[C@@H]1CC[C@@]31c3ccccc3N3C=C4[C@@H]5N(/C=C/2[C@H]31)c1ccccc1[C@]51CC[C@H]2[C@H]1C[C@@H]4/C(=C/CO)N2CC=C
-22.2 | COC(=O)C1=C(C(=O)OC)[C@@H]2N(C)c3ccccc3[C@@]23C[C@@H](C(=O)OC)N(S(=O)(=O)c2ccc(C(F)(F)F)cc2)C3=N1
-4.4 | CCCCN1CCC(n2c(=O)[nH]c3ccccc32)CC1
0.0 | C=C1CC[C@@H]2O[C@@]2(C)CC[C@H]2[C@H]1CC2(C)C
-5.9 | C[C@@H](O)C#C[Si](C)(C)c1ccccc1
-15.1 | CO[C@@H]1c2cc(F)ccc2/C(=C\CCOC(=O)C/C=C/c2ccccc2)[C@H]1C
-1.7 | COC(=O)C1=C(C(=O)OC)[C@@H]2N(C)c3ccccc3[C@@]23C[C@@H](C(=O)OC)N(S(=O)(=O)c2ccc(C#N)cc2)C3=N1
-3.3 | C=CC[C@](C)(Nc1ccc(OC)cc1)C(=O)OCC
3.1 | CO/N=C1\CN(c2nc3c(cc2F)c(=O)c(C(=O)O)cn3C2CC2)CC1CN (stereo not given)
-2.4 | C=CCOC[C@@H]1CN2[C@H](c3ccc(Br)cc3)[C@@H](C)CC[C@H]2C(=O)O1
-6.0 | Cc1ccccc1Nc1oc(-c2ccccc2)nc1-c1cccs1
-8.0 | Cc1cccc(CNc2nc(-c3ccc(C(=O)N(C)C)cc3)nc3ccccc23)c1
-1.7 | O=C(O)c1nc2cc(Cl)c(Cl)cc2[nH]c1=O
-24.7 | NC(N)=[N+]1CCc2ccccc2C1
-4.1 | COC(=O)[C@@]1(Cc2ccc(F)cc2)[C@H]2c3cc(C(=O)N4CCCC4)n(CCc4ccc(OC)c(Br)c4)c3C[C@H]2CN1C(=O)c1ccccc1
-0.3 | Cc1cn([C@H]2C[C@@H](N=[N+]=[N-])[C@@H](CO)O2)c(=O)[nH]c1=O
-5.1 | COCCN(CCOC)c1nc(C)nc2c1nc(-c1ccccc1)n2CCN(C)C
-11.8 | CCCCCCCC/C=C\CCCCCCCC(=O)N[C@@H](CO)Cc1ccc(O)cc1

An excerpt; count on the stated rates, not on these rows.
